# RecA splice inh = blocks M. tuberculosis RecA intein splicing; P9WHJ3; 0.75% of 290,000 active; inhibition, %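 (about 9 µM by stock and volumes)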; cell-free RecA intein splicing, fluorescence; in the data active = inhibition above about 30%; inconclusive = no clear call, values can overlap the other calls;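 note: 0% = vehicle wells and 100% = reference inhibitor control wells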
# Target sequence (P9WHJ3 whole entry, looked up, canonical isoform): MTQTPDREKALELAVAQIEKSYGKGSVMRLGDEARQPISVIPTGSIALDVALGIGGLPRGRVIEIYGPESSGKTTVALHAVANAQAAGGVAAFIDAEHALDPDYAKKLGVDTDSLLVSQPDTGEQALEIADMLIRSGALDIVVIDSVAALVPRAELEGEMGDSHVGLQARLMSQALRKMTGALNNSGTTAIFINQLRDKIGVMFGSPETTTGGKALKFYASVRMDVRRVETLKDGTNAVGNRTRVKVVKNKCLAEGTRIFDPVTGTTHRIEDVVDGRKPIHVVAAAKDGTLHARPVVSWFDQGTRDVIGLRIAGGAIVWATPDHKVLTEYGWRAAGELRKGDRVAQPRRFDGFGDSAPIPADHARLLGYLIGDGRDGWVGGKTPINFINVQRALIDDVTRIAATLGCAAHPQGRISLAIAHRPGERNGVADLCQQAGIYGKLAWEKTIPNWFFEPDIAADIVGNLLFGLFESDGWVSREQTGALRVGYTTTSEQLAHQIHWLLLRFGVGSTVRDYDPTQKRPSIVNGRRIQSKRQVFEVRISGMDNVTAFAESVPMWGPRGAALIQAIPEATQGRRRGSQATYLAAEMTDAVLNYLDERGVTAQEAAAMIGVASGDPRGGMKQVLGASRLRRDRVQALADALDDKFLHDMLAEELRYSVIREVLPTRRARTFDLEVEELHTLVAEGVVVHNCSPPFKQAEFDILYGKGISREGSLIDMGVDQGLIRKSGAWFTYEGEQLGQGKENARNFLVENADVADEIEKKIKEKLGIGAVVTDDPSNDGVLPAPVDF
# Arbovirus inh = blocks arbovirus infection; AID 1251; arbovirus infection cell-based antiviral screen; inhibition, % at 10 µM; 0.37% of 200,000 active;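 active = inhibition from about 30%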;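 note: bluetongue infection of BSR cells; cell survival read as ATP light after 72 h; 0% = infected wells without compound and 100% = uninfected wells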
# Mtb growth = M. tuberculosis H37Rv growth inhibitors, H37Rv strain (AID 1626). 0.95% of 220,000 active. M. tuberculosis H37Rv growth inhibition; higher % means a stronger effect. one-dose inhibition, % at 10 µM; IC50 in µM for titrated hits;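 active = confirmed in a dose series; inconclusive = inhibition above 80% but not taken into the dose series; inactive = below 80% or under 30% at every dose of the series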;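 note: bacteria incubated seven days before Alamar blue readout; 0% = bacteria only wells and 100% = bacteria with antibiotic wells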
# Mtb bLac sens = beta-lactam sensitization of Mtb H37Rv | M. tuberculosis H37Rv growth with meropenem, percent inhibition; hits of this screen are not shown here | inhibition, % at 25 µM | 0.27% of 330,000 active | AID 434955;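 active = about 74% or more and at least 40 points above the plate without the antibiotic, then above 30% in a dose series; inconclusive = first-round hits that could not be retested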;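 note: growth measured after seven days incubation then overnight dye step; 0% = bacteria only wells and 100% = bacteria with antibiotic; twin plates without the antibiotic show which effects depend on it; some results filed as inactive read as strong as hits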
# YopH PTP inh = blocks Yersinia enterocolitica YopH tyrosine phosphatase. 0.16% of 140,000 active. AID 898. fluorescence Ex485/Em525. inhibition, %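 (about 10 µM by stock and volumes)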;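 active = inhibition of 50% or more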;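 note: controls were vehicle for no effect and minimum signal wells for full effect; inactives centre near -20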
# Starred values were filed as active, the others as inactive; ? = inconclusive; / = no result given; & = joins results of further samples.
SMILES,RecA splice inh,Arbovirus inh,Mtb growth,Mtb bLac sens,YopH PTP inh
Cc1nc(NC(=O)c2ccccc2)sc1-c1csc(Nc2ccc(Cl)cc2Cl)n1,-0.8,-13.3,22.9%,7.5,30.4
Cc1ccc2c(c1)N(CC(=O)NCCc1ccc(Cl)cc1)C(=O)c1cccnc1O2,1.6,/,/,?,/
CCc1ccc2c(c1)C1(NN=C(c3cccc4ccccc34)S1)C(=O)N2 (stereo unspecified),-4.4,-24.4,?,23.4,-34.0
O=C(CNC(=O)c1ccc(Cl)cc1Cl)OCC(=O)c1ccc2c(c1)OCCO2,/,4.1,-5.5%,57.2,-22.0
Cc1nn(CC(=O)Nc2ccc(S(=O)(=O)N(C)C)cc2)c(C)c1[N+](=O)[O-],-0.3,-0.8,5.4%,0.5,-19.8
COc1ccccc1C(=O)OC(C)CN1CCN(C)CC1 (stereo unspecified),2.1,/,/,-4.0,/
CC(C)(C)OC(=O)NNC(=O)c1ccc(Cl)cc1,3.2,3.9,-6.8%,-3.6,-6.8
C=CCOc1c(Cl)cc(CNc2ccc(C)c(Cl)c2)cc1OC,12.0,-6.6,-7.6%,-1.4,-2.9
COc1ccc(OC)c(CN2CCN(C(=O)c3ccc(NS(=O)(=O)c4cccc([N+](=O)[O-])c4)cc3)CC2)c1,-5.9,/,/,-10.9,/
Cc1ccc(NC(=O)NNC(=O)COc2ccc(Cl)cc2)cc1,0.7,/,/,-5.2,/
CCOc1ccc(S(=O)(=O)N2CCN(C(=S)NCc3ccccc3)CC2)cc1,-0.6,/,0.7%,-0.1,/
O=C(O)Cn1cc(C(=S)N2CCCCC2)c2ccccc21,-0.1,2.5,3.9%,-6.7,/
CC(NC(=O)C1CCCC1)c1ccc2c(c1)OCCO2 (stereo unspecified),1.3,-1.6,2.0%,-2.1,-1.4
OC(Cn1cncn1)(Cn1cncn1)c1ccc(F)cc1F,-2.4,/,-3.3%,0.6,/
O=C1C(=O)N(CCOCCO)C(c2ccccn2)/C1=C(\O)c1ccccc1 (stereo unspecified),-0.6,5.5,-3.0%,-2.0,-11.2
CCC(CC)C1C(C#N)=C(N)SC(N)=C1C#N,0.0,-9.1,-12.5%,-10.1,-20.8
O=C(CCc1ccc(S(=O)(=O)N2CCOCC2)cc1)NN=C1CCCCCCC1,1.5,-12.0,1.6%,4.2,-24.6
O=S(=O)(c1cccc(C(F)(F)F)c1)N(CCCN1CCOCC1)Cc1cccs1,2.1&-2.5,-0.4&-1.8,2.4%&5.0%,-9.8&-6.2,-31.1
O=S(=O)(Nc1ccc2nc(-c3ccc(Br)o3)[nH]c2c1)c1ccccc1,/,-29.9,-3.6%,/,-32.0
O=C(Oc1cccc(-c2cnc3ccccc3n2)c1)c1ccco1,9.6,9.8,1.39µM*,94.4,6.7
CCC(CC)NC(=O)c1cccc(NC(=O)C(C)C)c1,/,2.1,-5.1%,8.0,2.9
COc1cc(CNC(C)C)c(Br)cc1OC1CCCC1,1.0,-5.7,-0.8%,-0.2,/
Cc1ccc(NC(=O)/C=C/c2ccc([N+](=O)[O-])s2)c(C)c1,0.9,-13.4,1.79µM*,100.1,-1.0
O=C(Cn1c(=O)oc2cc(S(=O)(=O)N3CCCC3)ccc21)Nc1cccc(C(F)(F)F)c1,1.5,4.5,0.7%,-7.5,-23.3
Cc1nc2ccccc2n1CC(=O)N/N=C/c1cccnc1,-1.3,3.8,-2.0%,0.4,/
OC(Cc1ccncc1)(c1ccccc1)c1ccccc1,-0.8,/,/,-3.6,/
C=C(C)Cn1c(C)cc(C)c(S(=O)(=O)c2ccc(C)cc2)c1=O,10.5,-6.1,0.8%,5.2,/
CC(C)N1CCC(N2CCN(Cc3cc4c(cc3Cl)OCO4)CC2CCO)CC1 (stereo unspecified),-9.7,-19.0,5.4%,-6.3,/
COc1ccccc1-c1nc2ccccc2nc1-c1ccccc1,5.3,26.2,10.2%,3.1,-3.8
O=C(COc1ccc(Cl)cc1Cl)Nc1ccccc1NS(=O)(=O)c1cccs1,1.4,9.3,4.2%,-0.5,/
CC(=O)N1CCN(c2ccc(NC(=O)c3ccc([N+](=O)[O-])o3)cc2Cl)CC1,-2.2,/,/,100.2,/
Cn1c(=O)c2c(nc(N3CCN(c4ccccc4)CC3)n2CCCc2ccccc2)n(C)c1=O,-1.1,0.2,3.6%,-3.2,-15.7
COc1ccc(NC(=O)C2CCCN(c3cnccn3)C2)cc1 (stereo unspecified),-5.8,/,/,-5.5,/
CCOC(=O)c1c(-c2cccc([N+](=O)[O-])c2)csc1NC(=O)C1CCCCC1,3.7,-10.0,10.3%,-2.3,-22.2
COc1ccc(C(=O)NC(C(=O)N2CCN(c3ccccc3O)CC2)C(C)C)cc1 (stereo unspecified),-2.5,/,/,-3.3,/
COc1ccc(C2CC(c3cccs3)=NN2c2ccccc2)cc1 (stereo unspecified),0.3,-11.5,2.4%,4.0,/
COc1ccc(CNC(=O)Nc2ccc3c(c2)N(C)C(=O)CS3)cc1,-1.6,-5.2,3.8%,-6.4,/
COC(=O)c1sccc1NC(=O)C1CC=CCC1C(=O)O (stereo unspecified),-4.9,-2.8,-2.1%,-1.2,-132.7
CC[n+]1c(/C=C/N(C)c2ccccc2)oc2ccc(Cl)cc21,-1.5,-14.8,-1.5%,-5.6,-9.8
Nc1nonc1C(=O)OCC(=O)N1CCOCC1,-0.1,3.4,-3.6%,-1.1,-30.0
Cc1cc(=O)oc2cc(NS(=O)(=O)c3ccc(F)cc3)ccc12,-48.9,/,0.2%,-0.8,/
CCCn1c(=N)n(CC(=O)OCC)c2ccccc21,1.7,4.0,-5.3%,-0.1,-20.4
Cn1cc(CC(=O)NC2CCCCC2)c2ccccc21,-1.0,0.8,-2.0%,-1.0,/
CC(NC(=O)COC(=O)c1ccc2ccccc2n1)C1CC2CCC1C2 (stereo unspecified),-1.6,7.5,-1.4%,8.3,/
O=C(O)c1nn(-c2cccc(Cl)c2)c(=O)cc1O,-0.8,3.0,5.8%,1.9,/
O=C(NCCc1nnc2ccc(NCc3ccc(F)cc3)nn12)c1ccccc1,-3.4,3.0,-1.1%,1.2,/
CN1CCc2c(sc(NC(=O)CS(=O)(=O)c3ccc(F)cc3)c2C(N)=O)C1,-9.2,/,/,-4.3,/
COc1cc(/C=N/NC(=S)Nc2cccc(S(=O)(=O)N(C)C)c2)cc(OC)c1O,-3.2,4.0,-3.5%,98.1,11.9
COc1ccc(C(=O)Nc2cc3c4c(c2)C(C)C(=O)N4CCC3)cc1 (stereo unspecified),0.5,/,/,2.0,/
COc1ccc(OC)c2c1C(=O)C(Cl)=C(Cl)C2=O,9.4,/,3.1%,2.1,/
O=C(CN1CCCCCC1)OCCN=C1NS(=O)(=O)c2ccccc21,3.8,12.5,-7.5%,-11.9,-22.0
COc1ccc(-n2c(SCC(=O)OC(C)C)nnc2-c2ccccn2)cc1,-0.6,5.6,1.6%,26.1,-52.7
NC(=O)c1nsc(C(=O)N(CC(=O)NCc2ccco2)c2ccccc2F)c1N,-4.2,-2.9,-0.9%,-2.3,-4.9
Cn1nc2c(c1C(=O)N1CCCC(C(=O)c3cc(F)ccc3F)C1)CCCC2 (stereo unspecified),-2.1,7.8,1.8%,2.9,/
COC(=O)c1ccc(N2C(=O)c3ccc(OC)c(OC)c3C2=O)cc1,0.1,/,2.6%,6.1,-36.5
CCCn1c(COc2ccccc2OC)nc2ccccc21,5.3,/,/,-8.1,/
CCOc1ccc(N2CSC3=C(C#N)C(c4ccco4)CC(=O)N3C2)cc1 (stereo unspecified),3.6,7.6,?,98.6,-23.9
COc1ccc(S(=O)(=O)NCCc2c(C)nn(C)c2Oc2ccccc2)cc1,1.0,1.0,2.6%,0.4,-40.6
CCN1C(=O)C(=O)N(CC(=O)c2[nH]c(C)c(C(C)=O)c2C)C1=O,-2.1,/,/,-0.5,/
CCn1c(C(=O)O)c(CC(=O)NC2CCCCCC2)c2ccccc21,-1.3,3.2,-4.0%,-1.8,/

# Reformatted with values under each structure: 5 of the compounds above
# The line under a structure holds: RecA splice inh, Arbovirus inh, Mtb growth, Mtb bLac sens, YopH PTP inh
> O=C(NCCc1nnc2ccc(NCc3ccc(F)cc3)nn12)c1ccccc1
  -3.4, 3.0, -1.1%, 1.2, /
> CCN1C(=O)C(=O)N(CC(=O)c2[nH]c(C)c(C(C)=O)c2C)C1=O
  -2.1, /, /, -0.5, /
> COc1ccc(-n2c(SCC(=O)OC(C)C)nnc2-c2ccccn2)cc1
  -0.6, 5.6, 1.6%, 26.1, -52.7
> CCCn1c(COc2ccccc2OC)nc2ccccc21
  5.3, /, /, -8.1, /
> COc1ccc(OC)c2c1C(=O)C(Cl)=C(Cl)C2=O
  9.4, /, 3.1%, 2.1, /

# The results go on.
SMILES,RecA splice inh,Arbovirus inh,Mtb growth,Mtb bLac sens,YopH PTP inh
N#Cc1ccccc1NC(=O)c1ccc2c(c1)OCCO2,-0.6,/,/,0.5,/
COc1ccc2c(c1)CCc1sc(NC(=O)c3ccco3)nc1-2,18.5,12.3,15.8%,-1.6,0.8
Cc1nc(/C=C/c2ccccc2)cc(/C=C/c2ccccc2)n1,-8.5,-0.5,4.5%,-0.9,2.9
COc1ccc(-c2cc(C(=O)OCC(=O)Nc3cc(C)on3)c3ccccc3n2)cc1OC,-50.4,-0.8,2.5%,-2.8,-5.9
CCOc1ccc(CCNC(=O)COC(=O)C2CC2)cc1OCC,-1.2,/,/,1.2,/
O=S(=O)(NCc1cn2ccsc2n1)c1cccs1,-4.3,5.2,-14.8%,-3.1,-40.2
Cc1ccccc1CN(C)CC(=O)NC(C)CCc1ccccc1 (stereo unspecified),-0.5,-15.8,1.1%,-6.8,/
CCN(CC)CCCN1C(=O)c2oc3ccccc3c(=O)c2C1c1cccs1 (stereo unspecified),1.1,1.3,-1.5%,4.7,2.9
COc1ccc(S(=O)(=O)N(C)c2ccc(OCC(=O)Nc3cc(C)on3)cc2)cc1,3.3,2.4,0.8%,-12.9,-30.7
C=CCOc1c(CNc2nccs2)cccc1OCC,5.7,-2.6,11.2%,28.8,-18.8
COCCCNC(=S)NCCCNc1nc2cc(C)cc(C)c2cc1C#N,-9.4,-1.8,12.8%,47.5,/
Cn1c(=O)[nH]c(NC2CCCCC2)c(N=O)c1=O,2.8,4.7,7.2%,6.0,-22.0
CCOC(=O)c1[nH]c2ccc(Cl)cc2c1-c1ccccc1,-1.8,5.7,-2.0%,-5.9,18.8
Cc1ccc2c(c1)c1c3n2CC(=C2C(=O)OC(C)(C)OC2=O)NC3CCC1 (stereo unspecified),-11.9,-5.2,69.1%,56.5,-211.8
O=C(COC(=O)Cc1cccs1)Nc1ccccc1F,3.5,-5.3,1.2%,-3.5,-6.2
CC(C)(C)C(=O)Nc1ccccc1C(=O)Nc1ccncc1,6.7,3.9,-10.5%,-0.8,-59.5
CN(C)c1ccc(/C=N/NC(=O)CNC(=O)c2ccco2)cc1,-4.3,-0.7,-3.4%,3.2,/
Cc1ccc(NC(=O)Nc2nnc(Cc3ccc(F)cc3)s2)cc1,-0.6,/,/,4.3,/
CC(C)CC1CCCCC1OC(=O)CN1CCCCC1 (stereo unspecified),0.2,4.3,-8.3%,-4.8,/
O=C(Nc1cc(Cl)cc(Cl)c1)C1CC(=O)N(C2CCCC2)C1 (stereo unspecified),2.2,/,/,-8.4,/
N#Cc1ccccc1CSCCNC(=O)Cc1c(F)cccc1Cl,1.0,/,/,-3.2,/
CCC[N+]12CCC(CC1)C(=C(c1ccccc1)c1ccccc1)C2,-1.8,-10.6,4.7%,-6.2,-31.3
Cc1c(CC(Cl)(Cl)Cl)c2c(n1O)CC(C)(C)CC2=O,0.6,2.1,-3.9%,4.4,-17.9
CC(C)Oc1ccc(-c2nn(-c3ccccc3)cc2/C=c2\sc3ncnn3c2=O)cc1,/,33.8*,/,52.3,12.8
CCN1CCN(C(=O)c2ccc3c(c2)N(Cc2ccccc2)C(=O)c2ccccc2S3(=O)=O)CC1,0.0,/,/,-5.3,/
CCC(c1nnnn1C1CCCC1)N1CCN(c2cccc(OC)c2)CC1 (stereo unspecified),-1.2,11.0,8.0%,-6.0,/
O=C(NN1CCOCC1)c1cn(-c2ccccc2)nc1-c1cccs1,-1.2,/,4.4%,-8.2,/
Cc1nn(C)c(C)c1CN(C)S(=O)(=O)c1ccc(F)cc1,-1.1,9.9,0.2%,-7.4,-19.1
Cn1nnnc1SCC(=O)N1CCN(c2ccc(Cl)cc2)CC1,2.5,-3.0,/,?,-31.4

# Structures shown so far containing a CF3 group (two):
SMILES,RecA splice inh,Arbovirus inh,Mtb growth,Mtb bLac sens,YopH PTP inh
O=S(=O)(c1cccc(C(F)(F)F)c1)N(CCCN1CCOCC1)Cc1cccs1,2.1&-2.5,-0.4&-1.8,2.4%&5.0%,-9.8&-6.2,-31.1
O=C(Cn1c(=O)oc2cc(S(=O)(=O)N3CCCC3)ccc21)Nc1cccc(C(F)(F)F)c1,1.5,4.5,0.7%,-7.5,-23.3

# A portion of the library. The share of hits here may be higher or lower than overall.
